# Bioassay records deposited in PubChem BioAssay by several laboratories.
# Yeast UUG start – yeast start codon fidelity modulation; hit rate 0.13% among 350,000; AID 602363; activity score, % at 18.7 µM; S. cerevisiae UUG-firefly luciferase reporter, luminescence/redox ratio;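 active = replicate mean at a twofold rise or more, about +100% in these data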;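 note: firefly luciferase made from a UUG start codon reports start codon fidelity; reporter light over untreated wells divided by growth signal over untreated wells; some hits fall short of that in this replicate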
# MT1-MMP act inh – blocks activation of human MT1-MMP; P50281; HT1080 RFP-PRO-GFP cells, GFP/RFP ratio fluorescence, overnight; percent of plate control window, DMSO zero; GFP/RFP ratio change, % at 20 µM; hit rate 0.061% among 360,000; AID 651647;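 active = GFP/RFP ratio change of at least 30% with cell ATP level not reduced by more than half and red fluorescence within 50% of control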; note: strong numbers were not always called active
#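 Assay system – RFP-PRO-GFP reporter HT1080 cells · Compound dosing – single dose of 20 µM compound, 1% DMSO final · Incubation – overnight compound exposure at 37 °C · Measure – GFP/RFP fluorescence ratio · Benchmarks – DMSO wells and RFP-L50D-GFP cells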
# PABP polyA inh – PABP-poly(A) binding inhibition; hit rate 1% among 290,000; PABP-poly(A) RNA binding, fluorescence polarization; AID 2014; inhibition, % at 35 µM; P11940;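 active = 50% or more with normal probe brightness, or confirmed in later tests; inconclusive = above 50% with abnormal brightness, or retests that disagree; inactive = below 50% or failed in later tests; about a fifth of its hits are not listed in these tables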;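 note: calls also rest on retests at 20 µM and on dose response follow-up; controls were probe without protein and protein plus probe with vehicle; some compounds called inactive have numbers as strong as hits; many hits fall short of the cut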
# HIV Env fusion – blocks HIV Env-driven cell-cell fusion. hit rate 1.1% among 360,000. HeLa-JRFL Env/CEM21 cell fusion, luciferase. inhibition, % at 12.3 µM;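 active = mean replicate inhibition score of at least 50 and every replicate individually at or above 50; inconclusive = only one of the two criteria met; inactive = mean below 50 and not all replicates reaching 50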;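 note: 0% = plate neutral controls and 100% = maraviroc near 300 nM; one replicate is shown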
# Rce1 inh – yeast Ras-converting enzyme inhibition; AID 2563; yeast membranes, quenched prenylated peptide cleavage fluorescence; Q03530; hit rate 0.27% among 290,000; calls only;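 active = fall in fluorescence gain of 50% or more versus controls, with final raw signal at or below 3038400; inconclusive = same 50% fall but final raw signal above 3038400; inactive = fall in fluorescence gain under 50%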;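 note: plate controls were neutral control wells for no effect and wells lacking membranes for full effect; tested at 10 µM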
# Target sequence (Q03530 whole entry, looked up): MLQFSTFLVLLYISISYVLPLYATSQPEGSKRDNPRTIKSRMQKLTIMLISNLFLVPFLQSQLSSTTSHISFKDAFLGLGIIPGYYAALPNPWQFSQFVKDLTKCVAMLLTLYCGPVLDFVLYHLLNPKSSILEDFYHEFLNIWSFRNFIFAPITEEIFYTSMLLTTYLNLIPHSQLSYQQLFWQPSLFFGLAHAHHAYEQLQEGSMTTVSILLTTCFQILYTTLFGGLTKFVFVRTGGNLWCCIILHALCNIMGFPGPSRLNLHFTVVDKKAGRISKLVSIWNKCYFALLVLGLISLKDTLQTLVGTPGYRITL
# eIF4H inh – inhibitors of RNA binding by human eIF4H; Q15056; eIF4H fluorescence polarization binding assay; inhibition, % at 35 µM; hit rate 0.94% among 290,000;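 active = 50% or more with normal probe brightness, or confirmed in later tests; inconclusive = above 50% with abnormal brightness, or retests that disagree; inactive = below 50% or failed in later tests; about a fifth of its hits are not listed in these tables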;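 note: calls also rest on retests at 20 µM and on dose response follow-up; 0% = protein and probe with vehicle and 100% = probe without protein; strong numbers were not always called active; many hits fall short of the cut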
# CSC inhib – cancer stem cell inhibition; inhibition, % at 7.5 µM; hit rate 1.1% among 300,000; cancer stem cell-like cells viability, luminescence; AID 2717;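 active = mean at 75% or more and at least half the replicates too; inconclusive = mean and replicates disagree; tested in HMLE shEcad cells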;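 note: 0% = median of negative and 100% = median of positive control wells; the first replicate is given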
# MT1-MMP act inh RFP – recorded beside MT1-MMP act inh, whose call it bears; RFP signal change, %; measured here: RFP expression control read;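 0 = vehicle wells; hits needed this value within 50% of zero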
# The depositor's hits bear a star; i = inactive; ? = inconclusive; . = no result given.
SMILES	Yeast UUG start	MT1-MMP act inh	MT1-MMP act inh RFP	PABP polyA inh	HIV Env fusion	Rce1 inh	eIF4H inh	CSC inhib
Nc1ncnc2c1ncn2C1CCC(CO)C(O)C1 (stereo unspecified)	-34	1	1	-8	.	i	-3	-9
O=C(CN1CCN(c2ccccc2)CC1)Nc1nccs1	-14	0	1	-6	.	i	-6	.
O=C(NCc1ccc(Cl)cc1)c1cc2c(nc3sccn32)s1	-23	4	2	24	-7	i	16	10
O=C(c1cccc(C(F)(F)F)c1)C1CCCN(C(=O)C2CCOCC2)C1 (stereo unspecified)	7	2	-4	-1	8	i	-12	9
COc1ccccc1NS(=O)(=O)c1cc(C(=O)Nc2ccc(S(=O)(=O)Nc3onc(C)c3C)cc2)ccc1C	-12	1	2	.	4	.	.	.
CCCN(CCC)CCCNC(=S)Nc1ccc2nc(N3CCN(C)CC3)cc(C)c2c1	-15	2	0	23	-9	i	-4	-2
CSc1ccc(/C=N/N2CCN(C)CC2)cc1	-17	-1	3	6	-5	i	6	-1
O=C(COC(=O)c1nc(Cl)ccc1Cl)Nc1ncc(Cl)cc1Cl	-14	-4	3	.	5	i	.	.
CNC(=O)COC(=O)c1cc(NC(=O)c2ccco2)c(OC)c(OC)c1	3	-3	-3	8	-6	i	-12	.
O=C(O)CSc1ncnc2nc[nH]c12	-8	3	2	22	-57	i	-9	-10
Brc1ccccc1OCCCCn1cnc2ccccc21	-21	-11	-31	-5	-15	i	-2	10
O=C(c1cc(COc2ccc3ncccc3c2)on1)N1CCCC1	-13	3	-24	-4	-17	i	-2	4
COc1ccc(OCCCON2C(=O)c3ccccc3C2=O)cc1	-11	7	6	5	-2	i	-3	-11
COc1cc(OC)c(NC(=O)C2CCCN2C(=O)OCc2ccccc2)cc1Cl (stereo unspecified)	13	4	-1	0	12	i	-2	-7
O=C(Nc1ccon1)C(Sc1ccccc1)c1ccccc1 (stereo unspecified)	-11	-3	-2	-1	-6	i	-4	-10
N#C/C(=C\c1cccn1S(=O)(=O)c1cccc([N+](=O)[O-])c1)S(=O)(=O)c1ccc(F)cc1	3	-4	-2	.	22	.	.	.
C#CCOCCOCCOCCNc1nc(N2CCN(C(=O)C(Cc3ccc(O)cc3)n3cc(C(N)CC(C)C)nn3)CC2)nc(N2CCN(C(=O)C(Cc3ccc(O)cc3)n3cc(C(N)C(C)CC)nn3)CC2)n1 (stereo unspecified)	6	9	5	-4	-30	i	0	0
Cc1ccc2c(C)c(C(=O)Nc3ccc(S(N)(=O)=O)cc3)oc2c1C	-1	3	4	-17	5	i	-2	-25
COCCCNC(=S)NNC(=O)Cn1nc(C)c(Br)c1C	-24	-7	0	-3	-9	i	-6	-32
Cc1ccc(C(=O)NCCc2nnc3ccc(SCC(=O)Nc4nnc(C)s4)nn23)cc1	-33	3	3	.	-10	.	.	.
CCN(C(=O)COC(=O)c1ccc2[nH]c3c(c2c1)CCCC3)C1CCS(=O)(=O)C1 (stereo unspecified)	.	4	-2	-18	15	i	-11	-4
O=S(=O)([N-]c1nc2ccccc2nc1-n1cc[n+](Cc2ccccc2)c1)c1ccccc1	-2	-5	3	3	-46	i	-7	-5
COc1cc(CNc2ncc(-c3ccc(Cl)cc3)n2C)cc(OC)c1OC	-14	2	0	19	6	i	7	6
COc1cc(/C=N/NC(=O)CN2CCCCC2)ccc1OCc1ccccc1	1	0	-2	-7	-17	i	-10	-6
CSc1cccc(NC(=O)CCC(=O)O)c1	-16	0	1	-8	.	i	-2	9
CCn1c(CNC(=O)c2ccc(OC)cc2)nnc1SC	-16	2	3	-6	6	i	-16	0
CCCN(N=Nc1cccc([N+](=O)[O-])c1)c1cccc([N+](=O)[O-])c1	-6	-1	-7	-1	.	i	6	15
O=C(N/C(=C/c1ccccc1F)C(=O)N1CCCCC1)c1ccccc1	-13	2	4	5	-6	i	-6	-10
CCn1c(SCC(=O)Nc2ccc(OC)c(OC)c2)nnc1-c1c[nH]c2ccccc12	-22	1	-4	-3	16	i	4	-15
CCCOc1ccc(Cc2nc(N)nc(N)n2)cc1	-12	8	-10	2	.	i	-5	.
O=C(NCC(=O)N(Cc1ccco1)C(C(=O)NC1CCCCC1)c1cccnc1)c1cccs1 (stereo unspecified)	10	-9	-3	10	.	i	-8	-2
Cc1cccc(C(=O)NNC(=O)c2c(-c3ccccc3Cl)noc2C)c1O	-4	1	4	10	1	i	5	.
CCn1ccc(C(=O)N2CCN(c3ncccn3)CC2)n1	-8	1	2	-4	-6	i	-13	-13
Nc1ccc(C(=O)Nc2cccc3ncccc23)cc1	-18	-5	3	-1	1	i	-6	-11
ONC=Nc1cccc2nonc12	-17	-6	0	-2	.	i	0	0
CCC(C)(C)NC(=O)C(c1ccncc1)N(Cc1ccc(C)cc1)C(=O)c1csnn1 (stereo unspecified)	-11	-3	-6	4	-98	i	3	-8
O=C(/C=C/c1ccco1)Nc1nnc(-c2ccco2)s1	.	-2	1	11	-82	i	10	34
Cc1nc2ccc(NC(=O)CCS(=O)(=O)c3ccccc3)cc2s1	.	1	7	-8	-22	i	2	0
CC(=O)Nc1ccc(-c2cn3cc(C)ccc3n2)cc1	-12	2	0	17	-139	i	1	-10
COc1ccc(S(=O)(=O)N2CCC(C(=O)NCc3ccncc3)CC2)cc1C	.	-2	1	4	13	i	-3	-6
Cc1cccc(C)c1NC(=O)NC1(C(=O)NCc2ccncc2)CCCCC1	.	-3	-4	21	-6	i	4	-6
CCOc1cc(C2C(C(C)=O)=C(C)Nc3ncnn32)ccc1O (stereo unspecified)	-2	3	3	11	.	i	-4	-9
Nc1ccn([C@@H]2O[C@H](C(=O)NCC(F)(F)F)[C@@H](O)[C@H]2O)c(=O)n1	-13	1	2	.	10	.	.	.
O=C(NCc1nnnn1-c1ccc(F)cc1)C(=O)c1c[nH]c2ccccc12	-14	1	1	.	5	.	.	.
O=C(Cn1c(=O)n(CC(=O)NCc2ccccc2)c2ccccc21)NCc1ccccc1	-24	1	2	-19	.	i	7	-7
NNC(=O)Nc1cccc(C(F)(F)F)c1	-4	-1	3	2	4	i	0	-1
Cc1cccc2[nH]c3c(N4CCN(C(=O)c5ccco5)CC4)ncnc3c12	0	11	-2	-9	.	i	-14	3
C[C@H](NC(=O)C1CCN(S(=O)(=O)c2ccccc2)CC1)C(=O)NCc1ccncc1	0	-3	3	.	-10	.	.	.
Cc1c(C(=O)OCC(=O)Nc2ccc(N3CCOCC3)cc2)oc2ccccc12	-16	-6	1	.	-4	i	.	-3
O=C(N/N=C/c1ccncc1)c1ccc(NC(=O)c2cccc(Cl)c2)cc1	.	5	5	-5	14	i	-55	-5
COCCn1c(CN2CCN(c3ccccc3)CC2)nc2c1c(=O)n(C)c(=O)n2C	-18	2	-4	.	?	i	.	-1
CN1CCN(NC(=O)c2ccc(Cl)c(S(=O)(=O)Nc3ccc(Cl)cc3)c2)CC1	.	-3	1	-4	0	i	-1	-7
COc1cccc(CNc2ncnc3cc(OC)c(OC)cc23)c1	2	2	7	-2	.	i	3	18
CC1(C)COC(/C=C/c2ccc([N+](=O)[O-])cc2)=N1	-4	-20	-15	-17	-39	i	-14	41
O=C(NN1CCOCC1)c1cc(-c2ccccc2)nc2ccccc12	-35	4	-2	-10	3	i	-7	0
CN(C)c1ccc(/C=N/NC(=O)c2ccco2)cc1	-14	-1	0	-8	.	i	-1	-7
COc1ccc(S(=O)(=O)Nc2ccc3c(c2)OCCO3)cc1OC	-10	6	-3	0	-5	i	-5	-7
COCCCNCC(O)COc1ccccc1F (stereo unspecified)	5	0	2	-8	-4	i	4	-4
COCn1c(-c2ccc(OC)cc2)nc2ccccc21	-21	-4	0	3	-35	i	-6	31
CN(C#N)c1nc(Cl)nc(Nc2cccc(Cl)c2)n1	.	-14	-9	-6	-1	i	1	-14

# Continuation.
SMILES	Yeast UUG start	MT1-MMP act inh	MT1-MMP act inh RFP	PABP polyA inh	HIV Env fusion	Rce1 inh	eIF4H inh	CSC inhib
COc1ccc(CNC(=O)Nc2cccs2)cc1OC	-30	4	5	5	.	i	12	3
N/C(=N\OC(=O)CCC1CCCCC1)c1cccc([N+](=O)[O-])c1	-3	-1	-1	-6	.	i	-1	-17
COc1ccc(-n2cnc(N)c2C(=O)c2cccc([N+](=O)[O-])c2)cc1	.	-10	-9	-6	22	i	3	1
COc1ccc(C(=O)Nc2ccc(C3=NNC(=O)CC3C)cc2NC(=O)c2ccc(OC)cc2)cc1 (stereo unspecified)	.	0	-4	0	13	i	-3	17
O=C(Nc1cccc2c1CCCC2)c1ccccc1Br	-3	0	-2	-10	-1	i	-8	9
COc1cccc(C(C)(O)c2nc(-c3cc(F)cc(F)c3)cs2)c1 (stereo unspecified)	11	-9	-19	.	19	.	.	.
Cc1c(Br)c([N+](=O)[O-])nn1CC(=O)NC1CCCCCC1	-5	2	1	-5	3	i	-2	-2
CCCOCC(O)CC(CC)C(=O)NNC(=S)Nc1ccccc1 (stereo unspecified)	.	3	1	-6	6	i	-9	-16
OCCc1ccc(O)cc1	-6	1	5	.	7	.	.	-14
COc1ccc(/C(N)=N/OC(=O)C2CCC(=O)N2S(=O)(=O)c2ccc(C)cc2)cc1 (stereo unspecified)	.	0	0	0	-3	i	6	-5
C[C@@H](NC(=O)c1[nH]cnc1C(=O)Nc1ccc(Cl)cc1)c1ccccc1	-12	4	4	.	-9	.	.	48
CCOC(=O)c1cc(CC)sc1NC(=O)C(c1ccccc1)c1ccccc1	-21	-6	-8	3	-124	i	-9	-1
NC(=O)COC(=O)c1ccc(Oc2ccccc2)cc1	-20	0	0	-4	-48	i	-1	5
CCOC(=O)/C(N=Nc1ccc(F)cc1)=C(/O)c1ccc([N+](=O)[O-])cc1	-10	-2	0	2	.	i	10	16
COc1ccc(C2CC(c3ccc(Br)cc3)=NN2C(=O)c2cccnc2)cc1 (stereo unspecified)	-8	-13	-8	-7	-6	i	-2	-3
C=CCOc1ccc(S(C)(=O)=O)cc1	.	5	6	2	-5	i	2	-19
CCN=C1S/C(=C\c2cc(OCC)c(O)cc2Br)C(=O)N1CC	.	-38	-6	-6	-3	i	-6	64
CCOc1cccc(CN2CCC(Oc3ccc(C(=O)N4CCCC4)cc3)CC2)c1O	-11	5	6	.	-9	.	.	.
COc1ccc(OCc2cc(C(=O)NCCN3CCCc4ccccc43)no2)c(Cl)c1	-4	-7	-11	-14	-7	.	-5	18
CN(C)/N=C/C=C1\CCC/C(=C/c2cccs2)C1=O	.	0	-2	1	-162	i	23	8
CCOC(=O)C1CCCN(C(=O)CNC(=O)c2ccc(Br)o2)C1 (stereo unspecified)	-2	6	3	.	.	.	.	13
N/C(=N\OC(=O)/C=C/c1ccc(Br)cc1)c1ccccn1	-30	2	3	-8	-53	i	-8	-6
Cc1cccc(N2C(=O)C3C4CC(C(Br)C4Br)C3C2=O)n1 (stereo unspecified)	-18	4	5	-1	-68	i	-14	-1
O=C1CC(C(=O)N2CCN(Cc3ccccc3)CC2)CN1Cc1ccccc1 (stereo unspecified)	-1	3	-1	.	-24	i	.	7

# Random draw from the library, and some 2.9% of all compounds hit somewhere here.
